Ecoli rRNA inh – reduced GFP signal of wild-type E. coli, primary screen, bacterial rRNA inhibitor project, GFP/RFP fluorescence, OD600, single point | E. coli WT GFP vs humanized-ribosome RFP mutants, 24 h; stronger effect = lower value; DMSO median 0, no signal -100 | GFP signal change (wild-type ribosome), % (test concentration not listed) | AID 720706, 2013 | 350,000 tested, 1.6% active;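 active = significant combined selectivity score with lowered wild-type GFP, culture density cut under 30%, mutant RFP and density less affected; inactive = any of these conditions unmet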; note: one replicate is shown; some compounds called inactive have numbers as strong as hits
MLL AF4-AF9 inh – inhibitors of AF4 peptide binding to AF9, primary screen, biochemical, AlphaScreen, biotin-AF4 peptide, FLAG-AF9, single point. Protein AF-9 (Homo sapiens), P42568. inhibition, % at 10 µM. 350,000 tested, 0.47% active. AID 651704, 2012;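 active = every replicate reaching a set inhibition limit, whatever the replicate mean, cut at about 25% in these data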;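 note: 0% = plate neutral control median and 100% = total signal loss; the record names both 10 and 1 µM as test concentration; the first replicate is given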
Target sequence (P42568 whole entry, looked up): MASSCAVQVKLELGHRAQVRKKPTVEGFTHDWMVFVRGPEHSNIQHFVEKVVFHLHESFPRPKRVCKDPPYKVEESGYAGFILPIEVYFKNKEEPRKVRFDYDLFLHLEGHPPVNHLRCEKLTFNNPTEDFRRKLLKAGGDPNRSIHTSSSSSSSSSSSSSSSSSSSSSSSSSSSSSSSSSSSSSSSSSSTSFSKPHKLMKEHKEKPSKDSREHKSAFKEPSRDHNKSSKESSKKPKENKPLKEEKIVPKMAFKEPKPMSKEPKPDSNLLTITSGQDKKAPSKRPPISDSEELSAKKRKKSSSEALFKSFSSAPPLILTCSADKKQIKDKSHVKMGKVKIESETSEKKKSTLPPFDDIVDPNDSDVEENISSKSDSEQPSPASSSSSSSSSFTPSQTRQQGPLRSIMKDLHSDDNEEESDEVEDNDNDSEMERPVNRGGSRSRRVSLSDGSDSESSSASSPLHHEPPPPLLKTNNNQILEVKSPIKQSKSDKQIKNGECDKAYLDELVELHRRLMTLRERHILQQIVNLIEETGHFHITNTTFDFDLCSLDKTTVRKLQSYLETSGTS
Vif TR-FRET – inhibitors of Vif binding to APOBEC3G peptide, primary screen, biochemical, TR-FRET, GST-Vif 1-94, biotin-A3G peptide, dose response retest (AID 1117319) | TR-FRET GST-Vif / biotin-A3G peptide binding; higher % means a stronger effect; test concentration not given here; strong numbers were not always called active | inhibition, %, or IC50 in µM where a hit was titrated | 260,000 tested, 0.57% active | Virion infectivity factor (Human immunodeficiency virus type 1 group M subtype B (isolate …;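 active = above the screen mean plus three standard deviations and confirmed in dose response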;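 note: Vif residues 1-94 fused to GST binding biotinylated APOBEC3G peptide 110-148; 0% = full assay without inhibitor and 100% = GST in place of GST-Vif; retest series ran down from 100 µM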
Ecoli rRNA inh OD600 – also measured in Ecoli rRNA inh; calls as there; OD600 change, %; measured here: OD600 growth;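 optical density of the mix in the first replicate; 0 = DMSO median and -100 = no signal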
Ecoli rRNA inh RFP – second read-out of Ecoli rRNA inh, no call of its own (marks repeat the call); RFP signal change, %; measured here: RFP humanized mutant strains;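 first replicate; 0 = DMSO median and -100 = no signal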
* hit, by the source's call; & = joins results of further samples. An excerpt, so the mix of outcomes need not match the whole.

Ecoli rRNA inh | Ecoli rRNA inh OD600 | Ecoli rRNA inh RFP | MLL AF4-AF9 inh | Vif TR-FRET | compound
-1.4 | -1.7 | 1.3 | 0.1 | 1.2% | C#CCN(C[C@@H]1[C@@H](OC(=O)NCc2ccc(OC)c(OC)c2)[C@@H](OC(=O)NCc2ccc(OC)c(OC)c2)Cn2c(=O)ccc(=O)n21)S(=O)(=O)c1ccc(C)cc1
7.7&1.6 | 14.7&6.5 | 0.0&-2.4 | -1.4&-1.8 | 4.9% | CC(C)NC(=O)N(C)C[C@@H]1OCc2cnnn2CCCC(=O)N([C@@H](C)CO)C[C@H]1C
-1.3 | 4.9 | -2.6 | -2.0 | -1.1% | CN(CC(=O)NCC1CCCO1)S(=O)(=O)c1ccc2ccccc2c1 (configuration not stated)
6.3 | 16.0 | 7.6 | -1.8 | -9.9% | CC(C)(C)OC(=O)NCCCCCNC(=O)c1[nH]cnc1C(=O)Nc1cc(Br)ccc1F
-30.2* | -18.7* | 3.8* | 2.7 | 3.7% | Clc1nc(NCCc2ccccc2)c2cn[nH]c2n1
11.8 | 12.1 | -0.8 | -1.3 | -4.4% | CC12CCC(C(=NO)C1=O)C2(C)C (configuration not stated)
0.0 | 0.5 | -2.5 | -5.1 | -10.2% | O=C(Cc1cccc(NC(=O)C2CCCN(C(=O)C3CC3)C2)c1)Nc1ccc(C(=O)N2CCCCC2)cc1 (configuration not stated)
7.7 | 1.0 | -1.2 | -0.5 | 1.5% | CCOc1nc(NC(=O)NS(=O)(=O)c2ccccc2F)nc(-c2ccccc2)n1
-0.3 | -0.5 | 1.1 | 0.0&1.7&-1.6 | -0.9% | Cc1ccccc1S(=O)(=O)N(C)C[C@H]1OCc2cnnn2CCCC(=O)N([C@@H](C)CO)C[C@H]1C
3.9 | 3.8 | -0.7 | 9.7 | 2.4% | Cc1onc(-c2ccccc2)c1C(=O)NC1CC1
2.0 | 5.9 | -2.7 | -3.5 | 0.4% | CCCC1(CC)C(=O)NC(=O)N=C1N (configuration not stated)
4.2 | 14.2 | -2.1 | -1.5 | -6.7% | COc1ccc(C(CC(=O)O)c2cc(OC)c(OC)c(OC)c2)cc1OC (configuration not stated)
7.2 | 9.1 | -0.8 | 1.1 | -3.1% | O=C(COc1ccc2ccc(=O)oc2c1)NCCN1CCOCC1
13.7 | 5.3 | -1.9 | -1.4 | -8.2% | CC(C)N(C(=O)[C@H]1C[C@H](CC(=O)NCCCN(C)C)C(=O)N2CCc3c([nH]c4cc(CCC(=O)N(C)C)ccc34)[C@]12C)C(C)C
-0.1 | -0.5 | 0.7 | -10.0 | -3.5% | CN(CC(=O)Nc1ccc(F)cc1)C(=O)c1ccccc1Sc1ccccc1C#N
19.4&5.3 | 13.4&16.2 | 4.0&-3.1 | 0.7&-3.8 | -1.8% | C[C@H](CO)N1C[C@H](C)[C@@H](CN(C)C(=O)Nc2cccc(F)c2)Oc2ncc(Br)cc2C1=O
4.2 | 11.8 | 6.0 | -1.5 | -1.3% | COc1ccc(C(=O)OC2C(OC)OCC(O)C2O)cc1 (configuration not stated)
2.2 | 5.3 | -4.5 | -3.1 | -2.5% | O=C(COC(=O)/C=C/c1ccc(Cl)cc1)NC1CCS(=O)(=O)C1 (configuration not stated)
8.8 | 7.8 | 3.2 | 6.0 | 23.5% | COC(=O)[C@@]1(Cc2ccc(OC)cc2)[C@H]2c3cc(C(=O)N4CCCC4)n(Cc4ccc(OC)c(OC)c4)c3C[C@H]2CN1C(=O)c1ccccc1
6.9 | 9.9 | -1.5 | 4.5 | -5.2% | Nc1c(N(Cc2ccco2)C(=O)c2ccccc2F)c(=O)[nH]c(=O)n1Cc1ccccc1
0.9&1.2 | 12.1&9.2 | -4.3&-0.6 | -1.8&-1.1 | -8.3% | CCCNC(=O)C[C@@H]1C[C@H]2c3cc(NC(=O)c4ccc5c(c4)OCO5)ccc3O[C@H]2[C@@H](CO)O1
1.6 | 8.3 | -3.7 | -3.0 | -1.8% | CCCc1c(C(=O)N/N=C(\C)c2ccc3c(c2)OCO3)nnn1-c1nonc1N
23.4 | 9.9 | -2.8 | -3.5 | 5.4% | Cc1ccc(S(=O)(=O)SCCCSS(=O)(=O)c2ccc(C)cc2)cc1
8.5 | 6.4 | -0.3 | -0.8 | -2.6% | O=C(NNC(=O)c1cc2ccccc2o1)c1ccc(F)cc1

In the list so far, four have an aryl methoxy group.
Ecoli rRNA inh | Ecoli rRNA inh OD600 | Ecoli rRNA inh RFP | MLL AF4-AF9 inh | Vif TR-FRET | compound
-1.4 | -1.7 | 1.3 | 0.1 | 1.2% | C#CCN(C[C@@H]1[C@@H](OC(=O)NCc2ccc(OC)c(OC)c2)[C@@H](OC(=O)NCc2ccc(OC)c(OC)c2)Cn2c(=O)ccc(=O)n21)S(=O)(=O)c1ccc(C)cc1
4.2 | 14.2 | -2.1 | -1.5 | -6.7% | COc1ccc(C(CC(=O)O)c2cc(OC)c(OC)c(OC)c2)cc1OC (configuration not stated)
4.2 | 11.8 | 6.0 | -1.5 | -1.3% | COc1ccc(C(=O)OC2C(OC)OCC(O)C2O)cc1 (configuration not stated)
8.8 | 7.8 | 3.2 | 6.0 | 23.5% | COC(=O)[C@@]1(Cc2ccc(OC)cc2)[C@H]2c3cc(C(=O)N4CCCC4)n(Cc4ccc(OC)c(OC)c4)c3C[C@H]2CN1C(=O)c1ccccc1

Filtered by structure, the compounds so far with a furan ring, fused or not (two)
Ecoli rRNA inh | Ecoli rRNA inh OD600 | Ecoli rRNA inh RFP | MLL AF4-AF9 inh | Vif TR-FRET | compound
6.9 | 9.9 | -1.5 | 4.5 | -5.2% | Nc1c(N(Cc2ccco2)C(=O)c2ccccc2F)c(=O)[nH]c(=O)n1Cc1ccccc1
8.5 | 6.4 | -0.3 | -0.8 | -2.6% | O=C(NNC(=O)c1cc2ccccc2o1)c1ccc(F)cc1

(further entries)
Ecoli rRNA inh | Ecoli rRNA inh OD600 | Ecoli rRNA inh RFP | MLL AF4-AF9 inh | Vif TR-FRET | compound
12.9 | 13.7 | -1.3 | -0.4 | -5.3% | CC(=O)Nc1ccc(NC(=O)Cc2ccc(S(=O)(=O)N3CCCCC3)cc2)cc1
0.7 | 0.3 | -2.2 | -9.8 | -4.7% | O=C(COC(=O)c1cnccn1)NCCc1ccc(Cl)cc1
12.4 | 7.7 | 3.5 | 4.1 | -5.3% | COc1cc(/C=C(/C#N)c2nc(-c3cc4ccccc4oc3=O)cs2)cc([N+](=O)[O-])c1O
5.6 | 2.5 | -2.3 | -4.1 | 38.4% | CCC(C)n1c(-c2cccc(S(=O)(=O)N3CCOCC3)c2)n[nH]c1=S (configuration not stated)
-46.8 | -75.4 | -13.6 | 11.8 | -1.8% | Cn1c2c(c3ccccc31)CCN(CCCCN1CCN(c3ccccc3)CC1)C2=O
1.1 | 4.2 | -2.4 | -5.4 | 3.1% | CC1=C(C(=O)O)N2C(=O)C(NC(=O)c3c(F)cccc3F)C2SC1 (configuration not stated)
-5.5 | 4.9 | 4.6 | 0.2 | 0.6% | CCN1C(=O)[C@H]2[C@H]3CN=C(SCC4CC4)N3[C@@](Cc3ccccc3)(C(=O)OC)[C@H]2C1=O
8.9 | 8.8 | -1.0 | 1.0 | 12.8% | COc1ccc(-c2ccc(CN3C(C(C)C)C(=O)N(Cc4cn(CC5CCCCC5)nn4)CCS3(=O)=O)cc2)cn1 (configuration not stated)
7.5 | 7.9 | 2.4 | 2.2 | 5.3% | COc1cc(Cc2cc(OC)c(O)c(OC)c2)cc(OC)c1O
1.2 | 8.2 | 3.5 | -2.0 | -59.1% | COc1ccc(-c2cc3nc(-c4ccccc4)cc(N4CCN(C(=O)c5ccsc5)CC4)n3n2)cc1
16.4 | 14.1 | 1.0 | -15.1 | -23.9% | COc1cc2oc(=O)cc(-c3ccc(-c4ccc(OC(F)(F)F)cc4)cc3)c2c(OC)c1OC
-7.6 | -7.2 | -3.2 | 3.4 | 3.0% | CC[C@@H]1C(c2ccccc2)=NN(c2ccccc2)[C@H]1C(=O)N1CCOC1=O
-2.5&-0.5 | 8.3&2.2 | -2.8&-0.5 | -1.8&-17.1&-1.5 | -1.3% | C[C@@H]1CN([C@H](C)CO)C(=O)CCCn2nncc2CO[C@@H]1CN(C)S(=O)(=O)c1ccc(F)cc1
-1.6&2.3 | 4.5&11.1 | -2.5&-0.1 | -4.1&-1.9 | -1.0% | C[C@@H]1CN([C@@H](C)CO)C(=O)CCCn2nncc2CO[C@@H]1CN(C)C(=O)Nc1ccccc1F
-7.9 | -4.1 | -0.2 | 0.8 | -11.8% | CSc1ncnc2c1ncn2CCCNCC(c1ccccc1)c1ccccc1
3.9 | 1.0 | -5.0 | -2.5 | 0.3% | C=CCOC(=O)N1CCC2CC1c1cc(-c3ccc(OC)cc3)ccc12 (configuration not stated)
-2.2 | 11.4 | -2.8 | -0.6 | 2.5% | CC(=O)OCC(=O)C1(O)CCC2C3CC(F)C4=CC(=O)CCC4(C)C3C(O)CC21C (configuration not stated)
6.2&3.9 | 11.4&7.9 | -1.6&-4.6 | -3.4&-1.6&-2.2 | 1.5% | C[C@H](CO)N1C[C@H](C)[C@@H](CN(C)Cc2ccc(C(=O)O)cc2)Oc2ncc(-c3ccc(C(=O)N(C)C)cc3)cc2C1=O
-13.4 | -11.4 | -3.1 | 1.3 | -2.3% | O=C(CSc1ccccc1F)NC(=O)NC1CCCC1
11.2 | 5.0 | -1.9 | -0.2 | 6.2% | CCN(C[C@H]1N[C@@](CC)(C(=O)OC)[C@H]2C(=O)N(C)C(=O)[C@@H]12)C(C)=O
3.8 | 7.2 | -0.5 | 0.8 | -0.2% | CCCn1nc(C(=O)Nc2ccc3nc(N4CCOCC4)sc3c2)ccc1=O
-2.6 | -26.6 | 27.1 | -2.3 | -14.3% | O=c1[nH]c2ccccc2c2ccc(Cl)cc12
6.2 | 2.3 | 1.1 | 0.4 | -4.0% | NC(=O)c1cc(S(=O)(=O)N2CCCC2)ccc1OCCOc1ccccc1F
0.6 | -0.8 | -4.8 | -0.1 | -4.7% | C[C@H](O)CNC(=O)c1[nH]cnc1C(=O)Nc1cccc(Cl)c1
-8.1 | -6.4 | 3.0 | -23.8 | 8.9% | CCOc1ccc(OCCC(=O)OC(C)C(=O)Nc2ccc(Cl)cn2)cc1 (configuration not stated)
2.1 | -4.4 | 5.5 | 8.0 | -4.7% | COc1cc(NC(=O)C2=C(C)OCCS2)c(Cl)cc1C(=O)NCCCN1CCCC(C)C1 (configuration not stated)
18.4 | 27.1 | -0.5 | -1.7 | -3.2% | O=C(NCC(=O)N1CCN(Cc2ccccc2)CC1)c1ccccc1Cl
4.1 | 5.3 | -0.8 | 1.1 | -12.4% | O=c1[nH]c2nc(Cl)nc(Cl)c2[nH]1
-58.8 | -79.7 | -22.2 | -6.6 | -8.5% | CC(=O)N1C2=CCCC3CCCCC23c2ccccc21 (configuration not stated)
-24.6 | -44.6 | 2.4 | 0.1 | -6.5% | N#CC(C#N)=C1CCCc2sccc21
-11.5 | -14.9 | 1.9 | -8.9 | 0.6% | COc1ccc(C(=O)OCc2ccccc2C#N)cc1S(=O)(=O)N1CCOCC1
-43.5 | -71.9 | -10.0 | 1.5 | -0.8% | CCOC(=O)C1C(C(=O)OC)=C(c2ccc(OC)cc2)c2ccccc2N1S(=O)(=O)C(F)(F)F (configuration not stated)
-1.7 | -20.4 | 32.2 | -6.4 | -3.5% | COC(=O)c1c(C(=O)OC)c2c(-c3ccccc3)cc3cccc1n32
-31.6 | -60.8 | 0.8 | 1.9 | 5.8% | CC1Sc2ccc(C(=O)N(CCc3ccccc3)Cc3ccccc3)cc2NC1=O (configuration not stated)
5.0 | 0.7 | -0.5 | -1.6 | 3.9% | O=C(c1cc(-c2ccncc2)nc2ccccc12)N1CCOCC1

6 structures already listed, ordered by length of the SMILES, low to high:
Ecoli rRNA inh | Ecoli rRNA inh OD600 | Ecoli rRNA inh RFP | MLL AF4-AF9 inh | Vif TR-FRET | compound
4.1 | 5.3 | -0.8 | 1.1 | -12.4% | O=c1[nH]c2nc(Cl)nc(Cl)c2[nH]1
5.0 | 0.7 | -0.5 | -1.6 | 3.9% | O=C(c1cc(-c2ccncc2)nc2ccccc12)N1CCOCC1
18.4 | 27.1 | -0.5 | -1.7 | -3.2% | O=C(NCC(=O)N1CCN(Cc2ccccc2)CC1)c1ccccc1Cl
-31.6 | -60.8 | 0.8 | 1.9 | 5.8% | CC1Sc2ccc(C(=O)N(CCc3ccccc3)Cc3ccccc3)cc2NC1=O (configuration not stated)
-11.5 | -14.9 | 1.9 | -8.9 | 0.6% | COc1ccc(C(=O)OCc2ccccc2C#N)cc1S(=O)(=O)N1CCOCC1
-43.5 | -71.9 | -10.0 | 1.5 | -0.8% | CCOC(=O)C1C(C(=O)OC)=C(c2ccc(OC)cc2)c2ccccc2N1S(=O)(=O)C(F)(F)F (configuration not stated)
